Assay outcomes (PubChem)
VACV Venus inh: vaccinia inhibition (Venus reporter); Vaccinia virus Venus reporter expression, fluorescence; Potency, µM (highest dose often 36.5 µM), without a hit: at the highest dose activity change, negative = inhibition, most hits filed as inhibitors; AID 720580; hit rate 0.46% among 330,000; active means well fitted inhibition curve with a large enough effect; inconclusive means small, poorly fitted or top-dose-only effect; inactive means no such curve, though single readings can be large or run the other way; tested in A549 cells; note: nearly all actives have a fitted effect of over 30% in size; inactives centre near -10
Vaccinia mCherry: vaccinia inhibition (mCherry reporter). Vaccinia virus mCherry reporter infection, fluorescence; about a quarter of the inactives have no number. Potency, µM (top dose mostly 36.5 µM), inactives show top-dose activity change, negative = inhibition, usual class: inhibitors. hit rate 0.63% among 310,000. AID 720579; active = well fitted inhibition curve with a large enough effect; inconclusive = small, poorly fitted or top-dose-only effect; inactive = no such curve, though single readings can be large or run the other way; tested in A549 cells; note: nearly all actives have a fitted effect of over 35% in size; inactives centre near -10
Active calls of the source: *; [ ] = remark or other dose. % is set by controls: 0 for no effect and ±100 for the full control effect; potency is the fitted concentration of half-maximal effect.

Results for CCOC(=O)C1CCN(C(=O)COC(=O)CSc2ccc([N+](=O)[O-])cc2)CC1 ?
VACV Venus inh: -15%; Vaccinia mCherry: inactive

What do the screens show for `CC(=C/c1ccco1)/C=N/NC(=O)c1ccncc1`?
VACV Venus inh: 1%; Vaccinia mCherry: inconclusive

How did Cc1csc(SCC(=O)Nc2ccc(S(=O)(=O)N3CCCC3)cc2)n1 do in these assays?
VACV Venus inh: -1%; Vaccinia mCherry: -16%

How did CCN(CC)c1ccc(C2CC(=O)Nc3cc(OC)c(OC)cc32)cc1 (centres undefined) do in these assays?
VACV Venus inh: inconclusive

What do the screens show for `Cc1ccc(Nc2nnc(SCC(=O)Nc3cccc(S(=O)(=O)NC4=NCCCCC4)c3)s2)c(C)c1`?
VACV Venus inh: -20%; Vaccinia mCherry: -16%

How did CCOC(=O)N1CCC(NCCNC(=O)c2cccc(F)c2)CC1 do in these assays?
VACV Venus inh: -4%; Vaccinia mCherry: -4%

What do the screens show for `Cc1cc(C)cc(C(=O)Nc2nnc(SCC(=O)NCC3CCCO3)s2)c1` (centres undefined)?
VACV Venus inh: 0%; Vaccinia mCherry: inactive

Results for COc1cc(NC(=O)CSc2nc(-c3ccc(C(C)C)cc3)no2)cc(OC)c1 ?
VACV Venus inh: -22%; Vaccinia mCherry: -22%

How did CC(Cc1ccsc1)NC(=O)CCc1nnc(CCc2ccccc2)o1 (centres undefined) do in these assays?
VACV Venus inh: inconclusive; Vaccinia mCherry: inconclusive

What do the screens show for `Cc1ccc(NC(=O)COC(=O)CN2C(=O)COc3ccccc32)cc1`?
VACV Venus inh: -12%; Vaccinia mCherry: -20%

What do the screens show for `O=C1OC(c2ccccc2)C(O)=C1c1ccccc1` (centres undefined)?
VACV Venus inh: -9%; Vaccinia mCherry: -10%

What do the screens show for `COc1ccc(C2CC(=O)N(CC(=O)Nc3cccc(C)c3C)c3ccccc3S2)cc1OC` (centres undefined)?
VACV Venus inh: -23%; Vaccinia mCherry: inconclusive

Results for COCC(=O)Nc1ccc(Br)cc1C ?
VACV Venus inh: -13%; Vaccinia mCherry: inactive

What do the screens show for `C=CCn1sc(N)c(C(=O)OCC)c1=S`?
VACV Venus inh: -22%

Results for COc1ccc(C(O)c2nc(-c3ccc(F)cc3OC)cs2)cc1 (centres undefined) ?
VACV Venus inh: -6%; Vaccinia mCherry: -4%

What do the screens show for `Cc1cccc(C)c1-n1ncc(C(=O)N2CCN(c3ncccn3)CC2)c1C1CCN(C(=O)OC(C)(C)C)CC1`?
VACV Venus inh: -1%; Vaccinia mCherry: -8%

How did Cc1ccc(S(=O)(=O)CCC(=O)NNC(=O)CN(C)S(=O)(=O)c2ccc(C)cc2)cc1 do in these assays?
VACV Venus inh: -23%; Vaccinia mCherry: -19%

Results for CC1CC(=O)C(C(C2=C(O)CC(C)CC2=O)c2ccccc2)=C(O)C1 (centres undefined) ?
VACV Venus inh: -10%; Vaccinia mCherry: inactive

How did CCC(c1nnc(SCC(=O)Nc2ccc(Cl)cc2C(F)(F)F)n1C1CCCCC1)N(C)C (centres undefined) do in these assays?
VACV Venus inh: -21%; Vaccinia mCherry: -6%

How did CCOc1ccc(CNCCCSc2nnnn2C)cc1OC do in these assays?
VACV Venus inh: -20%; Vaccinia mCherry: -20%

Results for CC/C(=N\N=C(/CC)c1ccccc1N)c1ccccc1N ?
VACV Venus inh: 17%; Vaccinia mCherry: inconclusive

How did COC(=O)c1ccc(CSC2=NC[C@@H]3[C@@H]4C(=O)N(Cc5ccccc5)C(=O)[C@@H]4[C@](C)(C(=O)OC)N23)cc1 do in these assays?
VACV Venus inh: -18%; Vaccinia mCherry: -29%

Results for Cc1nc2c(Br)cc(Br)cc2c(=O)n1-c1ccccc1NC1OCC(O)C(O)C1O (centres undefined) ?
VACV Venus inh: -16%; Vaccinia mCherry: inactive

Results for COc1ccc(C(=O)N2CCCC(c3cc(C(=O)NCc4ccccc4)no3)C2)cc1 (centres undefined) ?
VACV Venus inh: -3%; Vaccinia mCherry: -7%

Results for Cc1ccc(Cn2ccnc2SCC(=O)Nc2nnc(C)s2)cc1 ?
VACV Venus inh: -12%; Vaccinia mCherry: 1%

What do the screens show for `O=C(CN1C(=O)C2CC=CCC2C1=O)Nc1nnc(SCc2ccc(Cl)cc2)s1` (centres undefined)?
VACV Venus inh: -9%; Vaccinia mCherry: -6%

How did O=C(N[C@@H](Cc1ccccc1)C(=O)CCl)OCc1ccccc1 do in these assays?
VACV Venus inh: 10µM*; Vaccinia mCherry: 10µM*

Results for Cc1cc(Cl)ccc1OCC(=O)N/N=C/c1ccc(OC2OC(CO)C(O)C(O)C2O)cc1 (centres undefined) ?
VACV Venus inh: 4%; Vaccinia mCherry: inactive

How did COC(=O)c1c(N)n(-c2ccc(OC)c(OC)c2)c2nc3ccccc3nc12 do in these assays?
VACV Venus inh: 0%; Vaccinia mCherry: 9%

What do the screens show for `CC(C)CC(=O)Nc1sc2c(c1C#N)CC(C)(C)NC2(C)C`?
VACV Venus inh: -28%

What do the screens show for `CC[C@@]1(C(=O)OC)N[C@H](CN(C)C(=O)Nc2ccc(C(F)(F)F)cc2)[C@@H]2C(=O)N(Cc3ccccc3)C(=O)[C@@H]21`?
VACV Venus inh: -5%; Vaccinia mCherry: -4%

Results for O=C1CS/C(=N/N=C/c2ccccc2OS(=O)(=O)c2ccccc2)N1 ?
VACV Venus inh: -1%; Vaccinia mCherry: -14%

How did COc1cc(C2N(c3ccc(F)cc3)C(=O)C3CCCN32)cc(OC)c1OC (centres undefined) do in these assays?
VACV Venus inh: -1%; Vaccinia mCherry: -3%

What do the screens show for `CC1CCN(S(=O)(=O)c2ccc3c(c2)c(=O)c(C(=O)NC(C)c2ccccc2)cn3C)CC1` (centres undefined)?
VACV Venus inh: -10%; Vaccinia mCherry: -21%

How did COc1ccccc1CNC(=O)Nc1ccc2c(c1)N(C)C(=O)c1ccccc1S2 do in these assays?
VACV Venus inh: inconclusive; Vaccinia mCherry: inconclusive

What do the screens show for `O=C(O)c1ccc(Nc2nc3ccccc3n3cnnc23)cc1`?
VACV Venus inh: 2%; Vaccinia mCherry: -6%

What do the screens show for `CCOC(=O)Cc1csc(NC(=O)c2ccc(NC(C)=O)cc2)n1`?
VACV Venus inh: -3%

What do the screens show for `O=C1c2[nH]nc(-c3ccccc3O)c2C(c2cccc(Br)c2)N1Cc1ccncc1` (centres undefined)?
VACV Venus inh: inconclusive; Vaccinia mCherry: inconclusive

How did O=C(NCCCCNC(=O)c1ccc(Br)cc1)c1ccc(Br)cc1 do in these assays?
VACV Venus inh: 1%; Vaccinia mCherry: 3%

Results for CC(C)(C)OC(=O)NCCCCCNC(=O)c1nc[nH]c1C(=O)N1CCc2ccccc2C1 ?
VACV Venus inh: -6%; Vaccinia mCherry: -16%

How did CN1CCC(CNC(=O)Nc2csc3ccccc23)CC1 do in these assays?
VACV Venus inh: -3%; Vaccinia mCherry: -17%

What do the screens show for `O=C(CN1C(=O)NC2(CCCC2)C1=O)NCC1CCCO1` (centres undefined)?
VACV Venus inh: 2%; Vaccinia mCherry: 14%

Results for CCOC(=O)c1ccc(NC(=O)CSc2nccn2-c2ccc(OCC)cc2)cc1 ?
VACV Venus inh: -24%; Vaccinia mCherry: -29%

What do the screens show for `COc1ccc(CCNC(=O)C2CC3Cn4c(nc5ccccc54)C3N2Cc2ccccc2)cc1` (centres undefined)?
VACV Venus inh: -17%; Vaccinia mCherry: -1%

What do the screens show for `Cc1cc(S(=O)(=O)NCC2CC2)c(Cl)cc1Cl`?
VACV Venus inh: -11%; Vaccinia mCherry: -20%

What do the screens show for `COc1ccccc1-c1sc2cc3c(cc2c1-c1ccc(OCCN2CCOCC2)cc1)OCO3`?
VACV Venus inh: -10%; Vaccinia mCherry: -4%

What do the screens show for `COc1ccc(C(=O)N2CCN(c3ccc(N4CCOCC4)nn3)CC2)cc1OC`?
VACV Venus inh: 0%; Vaccinia mCherry: -10%

What do the screens show for `CCC(C)c1ccc(OCC(=O)Nc2ccc(CN3CCOCC3)cc2)cc1` (centres undefined)?
VACV Venus inh: -24%; Vaccinia mCherry: -9%

Four entries picked at random from those above:
How did CN1CCC(CNC(=O)Nc2csc3ccccc23)CC1 do in these assays?
VACV Venus inh: -3%; Vaccinia mCherry: -17%

What do the screens show for `O=C(CN1C(=O)NC2(CCCC2)C1=O)NCC1CCCO1` (centres undefined)?
VACV Venus inh: 2%; Vaccinia mCherry: 14%

What do the screens show for `COc1ccc(C(=O)N2CCN(c3ccc(N4CCOCC4)nn3)CC2)cc1OC`?
VACV Venus inh: 0%; Vaccinia mCherry: -10%

What do the screens show for `CCC(C)c1ccc(OCC(=O)Nc2ccc(CN3CCOCC3)cc2)cc1` (centres undefined)?
VACV Venus inh: -24%; Vaccinia mCherry: -9%

Next records follow.
How did COc1ccc(OCCCC(=O)OC(C)C(=O)Nc2ccc(S(N)(=O)=O)cc2)cc1 (centres undefined) do in these assays?
VACV Venus inh: -8%; Vaccinia mCherry: -2%

How did CCOC(=O)c1sc(NC(=O)C(CC)OC(=O)C(CC(C)C)NC(=O)c2ccccc2)nc1C (centres undefined) do in these assays?
VACV Venus inh: -7%; Vaccinia mCherry: inconclusive

Results for Cc1ccc(NC(=O)C(C)Sc2nc(-c3ccccc3)c(C#N)c(=O)[nH]2)c(C)c1 (centres undefined) ?
VACV Venus inh: -5%; Vaccinia mCherry: 1%

How did C/C=C(\C)CN1CCN(c2ccccc2)CC1 do in these assays?
VACV Venus inh: -14%

What do the screens show for `Cc1ccc(C)c(NC(=O)CCc2nc(-c3ccc(C(C)(C)C)cc3)no2)c1`?
VACV Venus inh: -9%; Vaccinia mCherry: -21%

What do the screens show for `N=c1scc(-c2ccccc2)n1/N=C/c1ccco1`?
VACV Venus inh: -12%; Vaccinia mCherry: -2%

Results for O=C(COc1ccc(S(=O)(=O)N2CCOCC2)cc1)NCc1ccccn1 ?
VACV Venus inh: -4%; Vaccinia mCherry: -16%

What do the screens show for `CCC(=O)Nc1cc(-c2cccc(C)c2)nn1-c1ccccc1`?
VACV Venus inh: -3%; Vaccinia mCherry: -7%

Results for C=CCOC(=O)C1=C[C@@H](c2ccc(C(F)(F)F)cc2)[C@H](CCCO)[C@@H](OCC)O1 ?
VACV Venus inh: -14%; Vaccinia mCherry: -6%

Results for Cc1cc(-c2nnc(SCC(=O)Nc3cccc(Cl)c3)n2N)n[nH]1 ?
VACV Venus inh: -13%; Vaccinia mCherry: inactive

How did C=C1CCc2c([nH]c3ccc(OCC(C)C)cc23)C1=O do in these assays?
VACV Venus inh: inconclusive; Vaccinia mCherry: -28%

Results for CCOC(=O)C(O)(c1cn(C)c2ccccc12)C(F)(F)F (centres undefined) ?
VACV Venus inh: -19%

Of the compounds above, 4 contain a thiophene ring, fused or not:
How did CC(Cc1ccsc1)NC(=O)CCc1nnc(CCc2ccccc2)o1 (centres undefined) do in these assays?
VACV Venus inh: inconclusive; Vaccinia mCherry: inconclusive

What do the screens show for `CC(C)CC(=O)Nc1sc2c(c1C#N)CC(C)(C)NC2(C)C`?
VACV Venus inh: -28%

How did CN1CCC(CNC(=O)Nc2csc3ccccc23)CC1 do in these assays?
VACV Venus inh: -3%; Vaccinia mCherry: -17%

What do the screens show for `COc1ccccc1-c1sc2cc3c(cc2c1-c1ccc(OCCN2CCOCC2)cc1)OCO3`?
VACV Venus inh: -10%; Vaccinia mCherry: -4%

Going on with the list:
Results for Cc1nc(CSc2n[nH]c(=O)n2-c2cccc(F)c2)cs1 ?
VACV Venus inh: -1%; Vaccinia mCherry: 4%

What do the screens show for `Cc1noc(/C=C/c2ccccc2F)c1S(=O)(=O)N1CCC(C(=O)N2CCOc3ccccc32)CC1`?
VACV Venus inh: 0%[7.34 µM]; Vaccinia mCherry: -3%[7.34 µM]

How did Cc1ccc(-c2nc(-c3cccnc3)sc2CC(=O)Nc2ccc3nc(C)sc3c2)cc1 do in these assays?
VACV Venus inh: -24%; Vaccinia mCherry: -20%

What do the screens show for `C/C(N)=C(/C#N)C(=O)CSc1nc(-c2ccccc2)c(-c2ccccc2)o1`?
VACV Venus inh: -5%; Vaccinia mCherry: -13%

Results for O=C(C1CCCN(Cc2ccccc2F)C1)N1CCc2ccccc2C1 (centres undefined) ?
VACV Venus inh: -9%; Vaccinia mCherry: inactive

What do the screens show for `CCCCCCNC(=O)c1c[nH]c2ccc(S(=O)(=O)N(C)c3ccc(C(C)C)cc3)cc2c1=O`?
VACV Venus inh: -10%; Vaccinia mCherry: -13%

Results for Cc1ccc2c(CC(=O)Nc3ccc4nc(N5CCOCC5)sc4c3)coc2c1 ?
VACV Venus inh: inconclusive; Vaccinia mCherry: -24%

Results for NS(=O)(=O)c1ccc(N=Cc2c(O)n(-c3nccs3)c(=O)c3ccccc23)cc1 ?
VACV Venus inh: 3%; Vaccinia mCherry: -1%

How did COc1ccc(OC)c(NC(=O)CSc2nc(=O)n(CCN3CCOCC3)c3c2CCCC3)c1 do in these assays?
VACV Venus inh: -8%; Vaccinia mCherry: inactive

What do the screens show for `COc1ccc(OC)c(C(C)NC(=S)Nc2ccc(S(=O)(=O)Nc3ncccn3)cc2)c1` (centres undefined)?
VACV Venus inh: -3%; Vaccinia mCherry: -13%

Results for O=C(Nc1nnc([C@@H]2C[C@H](O)[C@@H](CO)O2)s1)c1cccc(Oc2ccccc2)c1 ?
VACV Venus inh: 2%; Vaccinia mCherry: -8%

What do the screens show for `Cc1cn(CC(=O)NCCCN2CCCC2=O)c(=O)[nH]c1=O`?
VACV Venus inh: -8%; Vaccinia mCherry: inactive

What do the screens show for `CC(C)CN(c1ccccc1)S(=O)(=O)c1nnc(NC(=O)c2ccco2)s1`?
VACV Venus inh: 0%[7.34 µM]; Vaccinia mCherry: -1%[7.34 µM]
